Screens as filed in PubChem.
RecA intein inh – inhibitors of M. tuberculosis RecA intein splicing | P9WHJ3 | cell-free RecA intein splicing, fluorescence | inhibition, %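 (about 9 µM by stock and volumes)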 | hit rate 0.75% among 290,000; in the data active = inhibition above about 30%;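 also: 0% = vehicle wells and 100% = reference inhibitor control wells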
Target sequence (P9WHJ3 whole entry, looked up): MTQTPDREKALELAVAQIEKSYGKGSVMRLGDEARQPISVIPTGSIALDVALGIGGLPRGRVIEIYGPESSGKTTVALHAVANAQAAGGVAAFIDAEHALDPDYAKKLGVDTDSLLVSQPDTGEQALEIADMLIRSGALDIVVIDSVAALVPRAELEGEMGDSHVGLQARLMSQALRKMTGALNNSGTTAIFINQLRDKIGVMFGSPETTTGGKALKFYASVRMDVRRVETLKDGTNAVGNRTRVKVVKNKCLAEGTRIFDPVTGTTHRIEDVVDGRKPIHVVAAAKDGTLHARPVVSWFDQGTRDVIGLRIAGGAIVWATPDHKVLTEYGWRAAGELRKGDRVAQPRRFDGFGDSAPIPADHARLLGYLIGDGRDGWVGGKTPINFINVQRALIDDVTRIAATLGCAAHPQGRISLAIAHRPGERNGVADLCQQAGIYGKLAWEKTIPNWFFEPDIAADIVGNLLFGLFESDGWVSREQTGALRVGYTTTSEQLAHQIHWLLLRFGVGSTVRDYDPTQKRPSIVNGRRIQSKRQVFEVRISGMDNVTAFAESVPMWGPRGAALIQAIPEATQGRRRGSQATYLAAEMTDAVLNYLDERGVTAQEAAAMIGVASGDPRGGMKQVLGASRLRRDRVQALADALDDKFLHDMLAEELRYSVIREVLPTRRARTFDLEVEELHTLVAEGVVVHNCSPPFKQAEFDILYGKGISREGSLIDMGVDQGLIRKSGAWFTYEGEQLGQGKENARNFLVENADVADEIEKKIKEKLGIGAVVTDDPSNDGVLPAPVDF
YopH inh – YopH (Yersinia) phosphatase inhibition | hit rate 0.16% among 140,000 | inhibition, %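 (about 10 µM by stock and volumes)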 | fluorescence Ex485/Em525 | AID 898;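 active = inhibition of 50% or more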;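 also: controls were vehicle for no effect and minimum signal wells for full effect; inactives centre near -20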
Arbovirus inh – antivirals against arbovirus infection | arbovirus infection cell-based antiviral screen | inhibition, % at 10 µM | hit rate 0.37% among 200,000 | AID 1251;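 active = inhibition from about 30%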;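 also: bluetongue infection of BSR cells; cell survival read as ATP light after 72 h; 0% = infected wells without compound and 100% = uninfected wells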
Mtb betalactam – beta-lactam sensitization of Mtb H37Rv; AID 434955; M. tuberculosis H37Rv growth with meropenem, percent inhibition; hits of this screen are not shown here; hit rate 0.27% among 330,000; inhibition, % at 25 µM;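 active = about 74% or more and at least 40 points above the plate without the antibiotic, then above 30% in a dose series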;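 also: growth measured after seven days incubation then overnight dye step; 0% = bacteria only wells and 100% = bacteria with antibiotic; twin plates without the antibiotic show which effects depend on it; some results filed as inactive read as strong as hits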
Mtb growth – M. tuberculosis H37Rv growth inhibitors, H37Rv strain (AID 1626); M. tuberculosis H37Rv growth inhibition; higher % means a stronger effect; inhibition, % at 10 µM; hits with a dose series show IC50 in µM; hit rate 0.95% among 220,000;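 active = confirmed in a dose series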;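 also: bacteria incubated seven days before Alamar blue readout; 0% = bacteria only wells and 100% = bacteria with antibiotic wells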
Arbovirus inh repeat – second read-out of Arbovirus inh, no call of its own (marks repeat the call); inhibition, %; measured here: 10K subset replicate screen; many hits read low in the repeat;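 first of two repeat runs on a subset; 0% = infected and 100% = uninfected wells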
* hit, by the source's call; . = not tested or not shown. An excerpt. The share of hits here may be higher or lower than overall.

SMILES	RecA intein inh	YopH inh	Arbovirus inh	Mtb betalactam	Mtb growth	others
O=C(C1CCCN(c2ncccn2)C1)N1CCc2ccccc21 (stereo not given)	2.3	-29	-5	.	0%
O=C(Nc1cccc([N+](=O)[O-])c1)Nc1ccc(Cl)cn1	1.2	.	-2	1	-1%
CCc1[nH]nc(C(=O)N2CCCC(Nc3ccc(C(C)C)cc3)C2)c1C (stereo not given)	-0.6	.	.	-13	.
NS(=O)(=O)c1ccc(CNC(=O)C2(c3ccc(Cl)cc3)CC2)cc1	0.6	.	5	20	6%
CCCN(CCC)CCCNC(=O)c1ccc2c(Cl)c3c(nc2c1)CCC3	1.7	.	.	3	.
Cc1ccc(-c2ccc(/C=C(\C#N)C(=O)Nc3cc(C)nn3-c3ccccc3)o2)cc1	-97	-6	2	-14	61%
COc1ccc(CC(=O)N2CCN=C2SC)cc1	0.7	-46	2	-5	-14%	Arbovirus inh repeat=0
O=c1[nH]c(=O)n(-c2ccc(Br)cc2)c(O)c1C=NC(CO)(CO)CO	-0.3	.	.	-6	-7%
COCCN1CC(=O)N(c2cccc(C)c2C)C(c2ccc(Cl)cc2)C1=O (stereo not given)	3.2	-6	1	-8	0%
O=C(Nc1cccc2[nH]ncc12)c1ccc(F)cc1	1.2	-32	12	-21	-9%
CC(NCc1cccc(Cl)c1Cl)C(O)c1ccccc1 (stereo not given)	0.8	-20	0	-3	3%
Cc1ccccc1Cn1cccc1/C=C1/C(=N)N2C=CSC2=NC1=O	1.2	10	-8	-7	-7%
CCCN(CC1CC1)C(=S)Nc1ccc(C(C)=O)cc1	-1.1	.	6	-6	-2%
C/C(=C\c1ccccc1)C(=O)NCc1ccco1	0.7	.	1	0	3%
C=CCN=C1S/C(=C\c2ccc(Cl)cc2)C(=O)N1CC=C	9.1	.	.	3	9%
O=C(N/N=C/c1ccccc1C(F)(F)F)c1ccc2nc[nH]c2c1	-2.5	.	.	10	.
CCOc1cc(/C=N/Nc2nc(-c3cccc(S(=O)(=O)N4CCCC4)c3)cs2)ccc1O	-0.3	-21	-17	95	14%
CCC(SC1=N/C(=C/c2ccccc2OC)C(=O)N1c1ccccc1)C(=O)Nc1cc(C)on1 (stereo not given)	1.0	-22	-7	-16	7%
NS(=O)(=O)c1cccc(NC(=O)CSc2nnc(-c3ccccc3F)n2C2CC2)c1	2.4	.	.	4	6%
COc1ccccc1NC(=O)C1=C(C)Nc2nnnn2C1c1ccccc1OC (stereo not given)	2.6	-29	14	2	-1%
Cc1ccnc(NS(=O)(=O)c2ccc3c(c2)CCO3)c1	7.7	.	.	-15	-3%
CCOc1ccccc1N1CCN(C(=O)CC(C)C)CC1	-1.8	-12	0	-3	10%
CCOC(=O)N/N=C/c1cccnc1	-1.4	.	-5	-7	1%
CCOc1ccc(OCC)c(NC(=O)C2CCN(S(=O)(=O)c3cccc4nonc34)CC2)c1	-1.8	4	10	1	0%
COc1ccc(CCNC(=O)CSc2ccc3nnc(CCNC(=O)c4ccccc4)n3n2)cc1OC	3.3	.	.	0	.
O=[N+]([O-])c1ccc(-n2cccn2)c(-c2nn[nH]n2)c1	1.4	.	17	-2	-7%
CC(=O)NN1C(=O)c2ccccc2NC1c1ccc([N+](=O)[O-])o1 (stereo not given)	-3.7	.	-1	5	0%
COc1cc(-c2nnc(COC(=O)c3c4c(nc5ccccc35)CCCC4)o2)cc(OC)c1OC	.	-3	6	.	2%
CN(CCc1ccccn1)C(=O)c1ccc(OC2CCN(CCc3ccccc3)CC2)cc1	1.9	.	.	2	.
O=C(CCC(=O)N(CC(=O)NC1CCCCC1)Cc1ccc(F)cc1)Nc1nccs1	4.2	.	.	-8	.
Cc1cc(C(F)(F)F)nn1CC(=O)N1CCCCC1C (stereo not given)	0.1	3	1	0	-10%
COc1cccc(NC(=S)N(CCC(C)C)C2CCN(C(C)=O)CC2)c1	-0.2	.	.	5	.
COc1ccc(S(=O)(=O)N(C)CC(=O)NCc2cccnc2)cc1OC	0.8	-32	-1	-4	-11%
COc1ccc(NC(=O)c2nnn(Cc3cccc(F)c3)c2N)c(OC)c1	-0.2	-29	-40	1	-8%
CC1CC(=O)Nc2ccccc2S1(=O)=O (stereo not given)	-1.9	-44	-3	-6	-1%
Cc1ccc(NC(=O)CN(C)C(=O)Cc2ccc(Cl)cc2Cl)cc1	1.1	.	.	-5	.
O=C(CCCCCN1C(=O)c2ccccc2C1=O)NC1CCCC1	0.0	-12	0	-13	-8%
COc1ccc(C2C(C(=O)c3sc(C)nc3C)=C(O)C(=O)N2CCN(C)C)cc1OC (stereo not given)	-0.5	36	2	8	1%
COc1cccc(/C=C/C(=O)Nc2ccc(OC)nc2)c1	1.2	-13	3	29	14%
Cc1cccc(OCC(=O)Nc2ccc(N3CCN(C(=O)c4ccco4)CC3)cc2)c1	4.2	-43	-1	70	1%
Cc1ccc2[nH]c(=O)c(-c3nc4cc(C)ccn4c3NCc3ccco3)cc2c1	-2.0	-33	2	-7	1%
Cc1ccc(NC(=O)CN(C)C(=O)COC(=O)/C=C/c2cccs2)cc1	2.2	.	.	-12	.
CCN(CC(=O)Nc1cccc(OC)c1)C(=O)C1CCN(C(=O)Nc2ccccc2)CC1	-1.8	-35	-2	-10	-9%
CCC(C)NCCCCOc1ccc(Br)cc1 (stereo not given)	-0.9	-16	-19	3	2%
CC1CC(C)(C)NC(=S)N1CC(=O)N(C)Cc1ccccc1 (stereo not given)	2.6	-5	7	-1	6%

Entries listed so far that have two or more sulfur atoms (two):
SMILES	RecA intein inh	YopH inh	Arbovirus inh	Mtb betalactam	Mtb growth	others
CCOc1cc(/C=N/Nc2nc(-c3cccc(S(=O)(=O)N4CCCC4)c3)cs2)ccc1O	-0.3	-21	-17	95	14%
NS(=O)(=O)c1cccc(NC(=O)CSc2nnc(-c3ccccc3F)n2C2CC2)c1	2.4	.	.	4	6%

Compounds shown so far containing bromine (two):
SMILES	RecA intein inh	YopH inh	Arbovirus inh	Mtb betalactam	Mtb growth	others
O=c1[nH]c(=O)n(-c2ccc(Br)cc2)c(O)c1C=NC(CO)(CO)CO	-0.3	.	.	-6	-7%
CCC(C)NCCCCOc1ccc(Br)cc1 (stereo not given)	-0.9	-16	-19	3	2%

Next records:
SMILES	RecA intein inh	YopH inh	Arbovirus inh	Mtb betalactam	Mtb growth	others
CC(C)COc1ccc(-c2nnc(-c3ccco3)o2)cc1	5.9	-29	-4	79	-6%
Cc1cc(C)c(NC(=O)Cn2c(=O)n(-c3ccc(CC(=O)NCC4CCCO4)cc3)c(=O)c3ccccc32)c(C)c1 (stereo not given)	-1.2	.	5	-5	-2%
O=C(c1cscn1)N1CCCC(N2CCN(c3ccc(F)cc3)CC2)C1 (stereo not given)	1.4	.	.	-3	.
O=C(Cn1c(NCCCO)nc2ccccc21)c1ccc([N+](=O)[O-])cc1	-2.0	.	.	0	.
CCn1c(SCC(=O)c2c[nH]c3ccccc23)nnc1-c1cccs1	-1.2	12	-3	0	1%
COc1ccc(Cc2nnc(Nc3ccc(C)cc3)o2)cc1OC	2.7	.	.	-2	8%
CCc1cccc(NC(=O)Cn2c(=O)oc3cc(S(=O)(=O)N4CCOCC4)ccc32)c1	0.2	-22	13	-6	-3%
CN(C)C(=O)CSc1nnc(-c2ccncc2)n1Cc1ccco1	2.9	.	10	-4	3%
O=C(c1cc2sccc2n1Cc1ccc(F)cc1)N1CCc2ccccc21	14	-28	-6	-4	8%
CN(C)c1ccc(CN(C(=O)C2COc3ccccc3O2)C2CCS(=O)(=O)C2)cc1 (stereo not given)	0.1	-65	-1	-8	1%
CCCC(=O)NC(C)c1nc2ccccc2n1C (stereo not given)	1.8	-42	1	-3	3%	Arbovirus inh repeat=1
CC1CC(C)CN(CCCNC(=O)c2ccc3c(SCC(=O)O)c4c(nc3c2)CCC4)C1 (stereo not given)	0.0	.	.	-8	3%
CCN(CCn1cccn1)C(=O)c1cc(COc2ccc(F)cc2Cl)on1	0.0	.	6	1	4%
Cc1ccc(S(=O)(=O)N(C)C)cc1NC(=S)N(CCC#N)Cc1cccnc1	2.5	.	6	-2	3%
CN(C)CCNC(=O)Nc1cccc(Cl)c1Cl	-3.8	-11	3	-8	-3%
O=C(Nc1cc(C(F)(F)F)ccc1Cl)C1CCN(c2nnc(-n3cccc3)s2)CC1	.	-23	-2	.	-3%
CN1C(=O)C(=CN2CCN(C(=O)c3ccco3)CC2)C(=O)N(C)C1=S	0.6	-28	10	7	-3%
CCOc1ccccc1C1C(C(=O)Nc2ccc(OC)cc2)=C(C)Nc2nc(CCCO)nn21 (stereo not given)	0.5	-8	-3	-2	-3%	Arbovirus inh repeat=0
COc1ccc(Cl)cc1C(=O)N(Cc1nc(-c2cccc(C)c2)no1)C(C)C	11	-18	23	5	0%	Arbovirus inh repeat=-17
COCCN(CCOC)Cc1cc(=O)oc2cc3c(cc12)CCC3	-0.4	-9	4	0	-6%
COC(=O)c1cc(S(=O)(=O)NCc2ccccc2)cn1C	0.9	.	.	3	.
COc1ccc(C)cc1-n1nc2ccccc2n1	-3.4	.	0	4	7%
CCOc1ccc(NS(=O)(=O)c2ccc3c(c2)CCN3C(C)=O)cc1	2.1	.	.	-8	.
CCOC(=O)c1c(C)[nH]c(C)c1S(=O)(=O)NCC1CCN(Cc2ccccc2OC)CC1	-1.4	.	.	-6	.
O=C(CCSCc1ccccc1Cl)NCc1ccco1	1.3	.	-1	10	2%
CCNC(=O)/N=C1/NC(=O)C(C(C)C)O1 (stereo not given)	-5.3	-3	1	0	-2%
COC(CNC(=O)CSCc1nc(-c2ccc(SC)cc2)oc1C)OC	2.0	.	-3	-2	7%
Cc1ccc(NC(=O)C(=O)c2c[nH]c3ccccc23)cc1	-0.2	.	.	7	.
CSc1ccc(/C=N/NC(=O)CN2CCN(Cc3ccc(Cl)cc3)CC2)cc1	1.1	-6	12	-9	15%
Cc1ccc([N+](=O)[O-])cc1S(=O)(=O)NCc1cccnc1	-2.8	-25	3	-3	-8%
[O-][n+]1ccc(C(O)c2ccccc2)cc1 (stereo not given)	-1.4	.	.	-3	.
Cc1occc1-c1nnc(SCC(=O)NCCc2ccccc2)o1	-5.9	.	-4	0	15µM*
O=C(O)c1cccc(NC(=O)C2CC(=O)N(Cc3ccccc3)C2)c1 (stereo not given)	2.5	7	3	-6	-6%
NS(=O)(=O)c1cc(C(=O)OCC(=O)N2CCOCC2)ccc1Cl	-0.9	.	.	-5	.
O=C(CCCSc1ccccc1)Nc1nc(-c2ccccn2)cs1	-3.4	-4	-26	89	0.24µM*
CCc1ccc(NC(=O)N(CCN(C)C)C(C)c2cccnc2)cc1 (stereo not given)	-0.6	4	2	1	-5%
Cc1cc(C)c(C)c(C(=O)C2OC(=O)C(C)(C)C(=O)C2(C)C)c1C (stereo not given)	-0.1	-35	-7	1	-1%
OCCN(Cc1ccccc1)Cc1cccc(F)c1	0.2	-19	-1	31	-7%
O=C1C2CCCCN2C(=O)N1CCCCN1CCN(c2cccc(Br)c2)CC1 (stereo not given)	-0.6	.	.	18	.
COC(=O)c1ccc(CSc2nc3ccc(S(N)(=O)=O)cc3[nH]2)cc1	-0.5	.	.	3	.
NNC(=O)Cc1cn(-c2ncc(C(F)(F)F)cc2Cl)c2ccccc12	-7.0	-37	-12	-8	1%
CC(C)c1nc2oc3c(NCC4CCCO4)ncnc3c2c2c1CCC2 (stereo not given)	1.9	-20	-7	43	-8%
O=C(NCC(c1cccnc1)N1CCN(c2ccccc2)CC1)Oc1ccccc1 (stereo not given)	2.5	-15	5	-4	-7%
O=C(Nc1cccnc1)c1cc2c(ccc3ccccc32)o1	-1.0	-7	5	-2	-3%
COc1ccc(NC(=O)CSc2nc3nc(-c4cccs4)cc(C(F)(F)F)c3c(=O)[nH]2)c(OC)c1	0.3	-14	5	35	-7%
O=C(CCNC(=O)c1ccc(Cl)cc1)Nc1ccc(Cl)cc1F	4.7	-23	-3	48	41%
CCc1nnc(NC(=O)CSc2nnc(CNc3cccc(C)c3)n2-c2ccccc2)s1	3.4	-38	11	-4	-9%

Two neighbouring records from above, quoted:
SMILES	RecA intein inh	YopH inh	Arbovirus inh	Mtb betalactam	Mtb growth	others
[O-][n+]1ccc(C(O)c2ccccc2)cc1 (stereo not given)	-1.4	.	.	-3	.
Cc1occc1-c1nnc(SCC(=O)NCCc2ccccc2)o1	-5.9	.	-4	0	15µM*

Entries above with a CF3 group (5):
SMILES	RecA intein inh	YopH inh	Arbovirus inh	Mtb betalactam	Mtb growth	others
O=C(N/N=C/c1ccccc1C(F)(F)F)c1ccc2nc[nH]c2c1	-2.5	.	.	10	.
Cc1cc(C(F)(F)F)nn1CC(=O)N1CCCCC1C (stereo not given)	0.1	3	1	0	-10%
O=C(Nc1cc(C(F)(F)F)ccc1Cl)C1CCN(c2nnc(-n3cccc3)s2)CC1	.	-23	-2	.	-3%
NNC(=O)Cc1cn(-c2ncc(C(F)(F)F)cc2Cl)c2ccccc12	-7.0	-37	-12	-8	1%
COc1ccc(NC(=O)CSc2nc3nc(-c4cccs4)cc(C(F)(F)F)c3c(=O)[nH]2)c(OC)c1	0.3	-14	5	35	-7%
